Screens as filed in PubChem BioAssay.
CBX7 inh: blocks human CBX7 binding to H3K27me3 peptide. O95931. AlphaScreen His6-CBX7 / biotin-H3K27me3 peptide binding; hits give low values. normalised signal (fraction of DMSO) (test concentration not listed). 1.1% of 66,000 active. AID 1224903; in the data active means normalised signal below about 0.5;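 further: 100 nL library stock added to about 20 µL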
Target sequence (O95931 whole entry, looked up): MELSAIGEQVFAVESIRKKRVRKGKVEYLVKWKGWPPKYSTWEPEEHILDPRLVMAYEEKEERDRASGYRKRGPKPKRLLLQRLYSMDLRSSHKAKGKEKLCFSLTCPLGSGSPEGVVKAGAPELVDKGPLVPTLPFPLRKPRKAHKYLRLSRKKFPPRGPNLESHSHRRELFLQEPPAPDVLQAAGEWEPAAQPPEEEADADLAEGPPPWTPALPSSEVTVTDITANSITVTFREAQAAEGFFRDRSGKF
CBX7 inh z-score: further read-out of CBX7 inh, marked with its call; z-score; measured here: z-score of CBX7 signal; some inactives read as strong as hits; reference of the scale not given here;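 same signal on another scale; lower means less binding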
* hit, by the source's call; & = joins results of further samples. A portion of the library; rates above refer to the full screens.

SMILES | CBX7 inh | CBX7 inh z-score
Cc1nn(-c2nncc3ccccc23)c2c1C(=O)CC(C)(C)C2 | 0.94 | -0.94
O=C(CCC1CC(=O)Nc2ccccc21)NCc1ccccc1 (configuration not stated) | 1 | 0.54
Cc1ccc(C)c(N2CCN(c3nc4cccnc4s3)CC2)c1 | 1.1 | 2.5
COc1cccc(-c2nc(CS(=O)(=O)CC(=O)N(C)Cc3ccccc3)c(C)o2)c1 | 0.86 | -1.4
CCCC(=O)NCCc1cc2cc(C)c(C)cc2[nH]c1=O | 1.1 | 0.88
COc1ccccc1Nc1cccc2nonc12 | 2.2 | 33
COC(=O)c1c(NC(=O)c2c(OC)cccc2OC)sc2c1CCCC2 | 0.99 | -0.41
Cc1ccc2nc(-c3ccccc3F)c(Nc3ccc(Cl)cc3)n2c1 | 0.91 | -2.5
COc1ccc(CN2CCN(Cc3cccc(Br)c3)CC2)c(OC)c1 | 0.98 | -0.43
O=C(NCCN1CCCCCC1)c1csc2c1CCCCC2 | 0.98 | -0.56
COc1ccc(CNCC2(c3ccccc3)CCCC2)cc1OC | 1.1 | 1
COc1cc(C(=O)Nc2ccc3oc(-c4ccncc4)nc3c2)cc(OC)c1OC | 1.1&0.96 | 0.99&-0.92
COc1cc(NC(=O)CCc2c(C)nc3c(-c4ccccc4)c(C)nn3c2C)cc(OC)c1 | 1 | 1.2
CC1=Nc2cc(C(=O)N3CCC(Cc4ccccc4)CC3)ccc2Sc2ccc(Cl)cc21 | 0.82 | -2.9
CCC(=O)N1c2ccc(S(=O)(=O)Nc3ccc(C)c(C)c3)cc2CC1C (configuration not stated) | 0.78 | -0.87
COc1ccccc1C(=O)N1CCN(c2nnc(-c3ccccc3)c3ccccc23)CC1 | 0.95 | -1
CCC(=O)N1CCc2cc(S(=O)(=O)N3CCN(c4cccc(Cl)c4)CC3)ccc21 | 0.83 | -0.71
COc1ccc(Nc2cc(C(=O)NCc3ccc(C)cc3)c3ccccc3n2)c(OC)c1 | 0.93 | -1.1
Cc1ccc(OCCn2c(CNc3ccccc3C)nc3ccccc32)cc1 | 0.96 | -1.6
O=C(NCC1(c2ccccc2)CCCC1)c1ccc(F)cc1 | 1 | 0.71
CCCOc1ccc(C2C(=O)N(C3CCCCC3)CC(=O)N2CCC2=CCCCC2)cc1OC (configuration not stated) | 0.96 | -0.036
CCCCn1c(CCNC(=O)c2ccc(Cl)cc2)nc2ccccc21 | 1 | 0.46
COC(=O)c1c(-c2ccccc2)csc1NC(=O)C1CCCCC1C(=O)O (configuration not stated) | 1.2 | 1.4
COc1cccc(NC(=O)c2cccc(NC3=NC4CS(=O)(=O)CC4S3)c2)c1 (configuration not stated) | 0.92 | -0.83
CN(C)S(=O)(=O)c1ccc(-c2cn3cc(Cl)ccc3n2)cc1 | 1 | 0.67
Cc1nc2c(C(=O)NCCC3=CCCCC3)c[nH]n2c(=O)c1Cc1ccccc1Cl | 0.77 | -2.4
COc1ccc(C)cc1NC(=O)Cc1cn(C)c2ccccc12 | 0.61 | -8.3
Cc1ccc(C(=O)Nc2ccc(-c3nc4cc(C(C)C)ccc4o3)cc2)cc1Cl | 1 | 0.02
CCN(CCCNC(=O)CN1CCN(Cc2ccc(Cl)cc2)C1=O)c1cccc(C)c1 | 0.92 | -1.1
CCC1Oc2ccc(C)cc2N(CC(=O)NCCCOC)C1=O (configuration not stated) | 0.99 | -0.089

Look-ups from above:
`O=C(NCCN1CCCCCC1)c1csc2c1CCCCC2` in CBX7 inh = 0.98
`CCN(CCCNC(=O)CN1CCN(Cc2ccc(Cl)cc2)C1=O)c1cccc(C)c1` in CBX7 inh z-score = -1.1
`COc1ccc(C)cc1NC(=O)Cc1cn(C)c2ccccc12` in CBX7 inh = 0.61
`COC(=O)c1c(-c2ccccc2)csc1NC(=O)C1CCCCC1C(=O)O` (configuration not stated) in CBX7 inh = 1.2

Continued.
SMILES | CBX7 inh | CBX7 inh z-score
CN1CCN(C2CC(=O)N(c3ccc(Cl)cc3Cl)C2=O)CC1 (configuration not stated) | 1.2 | 1.6
COc1cccc(-n2ccnc2SCC(=O)Nc2ccc(F)cc2)c1 | 0.67 | -0.44
COc1cccc(-c2nc(-c3cc(OC)c(OC)c(OC)c3)[nH]c2-c2cccc(OC)c2)c1 | 0.99 | -0.29
CCOC(=O)c1cnc2c(C)cccc2c1Nc1ccc(OC)cc1 | 1 | 1.1
COc1ccc(NC(=O)c2c(NCc3cccs3)sc3c2CCCC3)c(OC)c1 | 0.68 | -6.2
Cn1c(C(=O)NCCc2ccccc2)cc2sc(Cl)cc21 | 1 | 0.35
O=C(NCCc1ccc(Cl)cc1)c1nc2ccccc2[nH]1 | 0.98 | -0.074
CC(C)c1ccc(NCc2nc(-c3ccc(Cl)cc3Cl)no2)cc1 | 1.1 | 0.83
COc1ccc(CNC(=O)C2CCN(S(=O)(=O)c3cnc[nH]3)CC2)cc1 | 0.82 | -2.3
CCOC(=O)Cc1c(C)nc2c(-c3cccc(Br)c3)c[nH]n2c1=O | 0.98 | -0.72
CN(Cc1ccccc1)C(=O)CSc1nc(NCc2ccc(Cl)cc2)c2ccccc2n1 | 0.99 | -0.69
COc1ccc(C2=NOC(C(=O)N3CCN(c4ccc(F)cc4)CC3)C2)cc1 (configuration not stated) | 1 | -0.056
O=C(Cn1ncc2ccsc2c1=O)N1CCN(c2cccc(Cl)c2)CC1 | 0.95 | -1.4
Cc1ccccc1NS(=O)(=O)c1ccc2[nH]cc(C(=O)N3CCCC3)c(=O)c2c1 | 0.89 | -2
CCc1ccccc1Nc1cc(C(=O)NCCN2CCCCCC2)c2ccccc2n1 | 1.1 | 1.8
CCn1c(=N)n(CC(O)COc2ccccc2)c2ccccc21 (configuration not stated) | 1.1 | 0.46
COc1ccc(C(c2sc3nc(C)nn3c2O)N2CCN(c3ccccc3F)CC2)cc1OC (configuration not stated) | 1 | 1.4
COc1ccc(OC)c(Nc2cc(C(=O)NCc3cccnc3)c3ccccc3n2)c1 | 0.89 | -1.7
CCOC(=O)c1cnc2c(C)cc(Cl)cc2c1Nc1ccc(N2CCOCC2)cc1 | 0.26* | -3.3*
O=c1[nH]cc(S(=O)(=O)N2CCN(c3ccccc3F)CC2)c2ccccc12 | 0.91 | -0.1
CC(=O)N1CCc2cc(S(=O)(=O)NCCCN3CCC(C)CC3)ccc21 | 1.2 | 1.1
O=C(O)c1ccc2c(c1)N(Cc1ccc(F)cc1Cl)C(=O)c1ccccc1S2 | 1.2 | 1.9
COc1ccc(Cl)cc1NC(=O)c1c(NCc2ccccn2)sc2c1CCC(C)C2 (configuration not stated) | 0.82 | -2.6
O=C(Nc1ccc(Cl)cc1)C1CCC(CNc2c(NC3CCCCC3)c(=O)c2=O)CC1 (configuration not stated) | 0.99 | -0.55
Cc1ccc2oc(Nc3nc(C)c(C)c(C)n3)nc2c1 | 1.1 | 1.5
COc1cc(NC(=O)CN2CC(c3ccccc3)CC2=O)cc(OC)c1 (configuration not stated) | 0.95 | -1.2
CCOC(=O)c1cnc2c(C)cccc2c1Nc1cccc(OC)c1 | 1.2 | 4.4
CCN(c1cccc(C)c1)C(C(=O)Nc1ccc2c(c1)OCO2)c1ccccc1 (configuration not stated) | 0.84 | -1
O=C(Nc1cccnc1)c1cc2ccccn2n1 | 1.2 | 1.4
CCOc1ccc(Nc2nnc(Cc3cccnc3)c3ccccc23)cc1 | 1.1 | 2.5

Continued.
SMILES | CBX7 inh | CBX7 inh z-score
Cc1ccc(S(=O)(=O)c2cn(CC(=O)Nc3ccccc3)c3ccccc3c2=O)cc1 | 1 | 0.36
CC(NC1CCCc2c1[nH]c1ccc(-c3ccccc3)cc21)c1ccccc1 (configuration not stated) | 0.73 | -7.6
COc1ccccc1Nc1ncc(C(=O)N2CCN(c3ccccn3)CC2)c2ccccc12 | 1.1 | 0.42
COc1cc(OC)c(NC(=O)C2CCN(c3nnc(-n4cccc4)s3)CC2)cc1Cl | 0.82 | -2.9
CC1(C(=O)Nc2ccccc2Cl)CC2c3ccccc3C1c1ccccc12 (configuration not stated) | 0.9 | -1.6
CCC(Cc1ccccc1)NC(=O)c1cc2sc(Cl)cc2n1C (configuration not stated) | 1 | 1.1
CCC1=Nc2cc(C(=O)NC)ccc2Sc2ccccc21 | 1.1 | 1.6
FC(F)(F)c1nnc2ccc(N3CCOCC3)nn12 | 1.2 | 1.5
CCCCN(C)S(=O)(=O)c1ccc(C(=O)Nc2sc3c(c2C(N)=O)CCN(C(C)=O)C3)cc1 | 0.97 | -1.5
Cc1ccc(-n2nnnc2SCCNS(=O)(=O)c2ccccc2)c(C)c1 | 0.7 | -8.1
Cc1cccc(-c2nnc(SCC(=O)N3CCN(c4ccccc4)CC3)o2)c1 | 0.95 | -0.12
O=C(CCc1cn(Cc2ccccc2)c2ccccc12)NCCN1CCOCC1 | 0.97 | -0.84
CCCOc1ccc(C(=O)Nc2cccc(C(=O)Nc3nccs3)c2)cc1 | 1.1 | 1.2
COc1ccc(-n2nc(C(=O)NCCc3ccc(OC)c(OC)c3)c3ccccc3c2=O)cc1 | 0.91 | -0.96
CCOc1ccc2nc(SCC(=O)NCc3ccccc3)[nH]c2c1 | 1.2 | 1.4
COc1ccc2c(c1)c(CC(=O)NCc1cccnc1)c(C)n2C(=O)c1ccc(Cl)cc1 | 0.87 | -0.18
O=C(CCCCn1c(=O)[nH]c2ccsc2c1=O)NCc1ccc2c(c1)OCO2 | 0.97 | -0.74
COc1cc2ccccc2cc1C(=O)Nc1nc(-c2cccs2)cs1 | 1.2 | 3.2
CC1CCN(C(=O)CSc2nnc(CNC(=O)c3ccccc3F)o2)CC1 | 1.1 | 1.7
CCCCNC(=O)CCn1c(=O)[nH]c2ccsc2c1=O | 1.1 | 0.97
Cc1nc2ncccn2c1-c1csc(Nc2ccccc2)n1 | 0.85&0.84 | -1.7&-2.4
COc1cccc(C(=O)NCCc2cc3ccc(C)cc3[nH]c2=O)c1OC | 1.1 | 3.6
Cc1ccc(C)c(CSc2nc3ccc(C)cc3[nH]2)c1 | 1 | 2
CCc1ccc(CNC(=O)c2cc(=O)[nH]c3ccc(S(=O)(=O)N4CCCCC4CC)cc23)cc1 (configuration not stated) | 1.1 | 1.1
COc1ccccc1CNC(=O)c1cn(-c2ccc(C)c(C)c2)c(=O)c2ccccc12 | 1.1 | 0.89
Cc1ccccc1OCC(=O)Nc1ccc(-c2nc3cc(Cl)ccc3o2)cc1 | 1.1 | 2.1
Cc1ncc(CO)c2cc(C(=O)Nc3cccc(Cl)c3)c(=O)oc12 | 1 | 1
Cc1ccc(NC(=O)c2cc3n(n2)C(C(F)(F)F)CC(c2ccc4c(c2)OCO4)N3)c(C)c1 (configuration not stated) | 0.84 | -0.16
Cc1ccc(Nc2nc3ccccc3nc2NS(=O)(=O)c2ccc(C)cc2)cc1 | 1&0.93 | 0.43&-1.2
O=C(CSc1nc2ccccc2s1)Nc1ccccc1C(=O)O | 0.98 | -0.26

Brought forward from above: 5 compounds, followed by the next part.
SMILES | CBX7 inh | CBX7 inh z-score
Cc1ccccc1OCC(=O)Nc1ccc(-c2nc3cc(Cl)ccc3o2)cc1 | 1.1 | 2.1
Cc1ncc(CO)c2cc(C(=O)Nc3cccc(Cl)c3)c(=O)oc12 | 1 | 1
Cc1ccc(NC(=O)c2cc3n(n2)C(C(F)(F)F)CC(c2ccc4c(c2)OCO4)N3)c(C)c1 (configuration not stated) | 0.84 | -0.16
Cc1ccc(Nc2nc3ccccc3nc2NS(=O)(=O)c2ccc(C)cc2)cc1 | 1&0.93 | 0.43&-1.2
O=C(CSc1nc2ccccc2s1)Nc1ccccc1C(=O)O | 0.98 | -0.26
COCCCNC(=O)Cn1nc(-c2ccc(Cl)cc2)ccc1=O | 1.1 | 1.9
CCc1ccc(CN(C(=O)c2ccc(OC)cc2)C2CCS(=O)(=O)C2)cc1 (configuration not stated) | 0.88 | -0.12
COc1ccc(-c2cc(C(F)(F)F)n3ncc(C(=O)NC(C)c4ccccc4)c3n2)cc1OC (configuration not stated) | 1 | 0.87
CCC(C)NC(=O)CN1CCN(Cc2cccc(C)c2)C1=O (configuration not stated) | 0.95 | -1.1
Cc1cccc(CN2C(=O)c3ccccc3Sc3ccc(C(=O)N4CCCC4)cc32)c1 | 1 | 0.96
CCC(Cc1ccccc1)NC(=O)CN1C(=O)COc2ccc(S(=O)(=O)N3CCOCC3)cc21 (configuration not stated) | 1 | 0.9
Cc1ccc(-c2noc(CCC(=O)Nc3ccc(C)c(F)c3)n2)cc1 | 0.99 | -0.016
O=C(CN1C(=O)COc2ccc(S(=O)(=O)N3CCOCC3)cc21)N1CCC2(CC1)OCCO2 | 1 | 0.31
Cc1ccc(-c2nc3ccc(Cl)cn3c2Nc2ccccc2C)cc1 | 0.97 | -0.92
Cc1ccc(CSc2nc3ccncc3n2Cc2nc(-c3ccc(Cl)cc3)oc2C)cc1 | 1.1 | 2.4
Cc1cc(NS(=O)(=O)c2ccc(NC(=O)c3cnc4sccn4c3=O)cc2)nc(C)n1 | 1.1 | 0.6
CCC(=O)N1CCc2cc(S(=O)(=O)NCc3ccc(C)cc3)ccc21 | 1 | 0.11
O=C(c1cnn(-c2ccccc2)c1-n1cccc1)N1CCC(C(=O)N2CCc3ccccc32)CC1 | 1 | 0.067
Cc1ccc(-c2cc(-c3ccccc3C)no2)c(O)c1 | 1.3 | 7.8
Cc1ccc(-c2nnc(N3CCCCC3)c3ccccc23)cc1S(=O)(=O)NCC1CCCO1 (configuration not stated) | 0.67 | -0.39
O=C(COc1ccccc1)Nc1nc(-c2ccc(S(=O)(=O)N3CCOCC3)cc2)cs1 | 0.91 | -2.3
N=c1n(CC(=O)c2cccs2)c2ccccc2n1Cc1ccccc1 | 0.84 | -0.99
Cc1ccc(CCNC(=O)C2CCC(=O)N2C2CCCC2)cc1 (configuration not stated) | 1 | 1.2
Cc1cc(NC(=O)C2CCN(S(=O)(=O)c3cccs3)CC2)ccc1Br | 1 | 0.73
CCC(Sc1nc2ccccc2o1)C(N)=O (configuration not stated) | 1.1 | 0.89
Cc1cccc(CN2C(=O)CSc3ccc(C(=O)NCCc4ccccc4)cc32)c1 | 1 | 0.42
CCOc1ccccc1NS(=O)(=O)c1ccc2c(c1)CCC(=O)N2 | 1.1 | 3.9
Cc1cccc(-c2nc(Nc3cc(F)ccc3C)c3ccccc3n2)c1 | 1 | 0.2
CCOc1ccccc1Nc1ncnc2c1c(-c1ccccc1)cn2-c1ccc(F)cc1 | 1.1 | 2
